# Screens deposited in PubChem BioAssay by National Center for Advancing Translational Sciences (NCATS).
# MARV entry inh – blocks Marburg virus binding to or entry into cells; 1.8% of 300,000 active; Potency, µM (doses to about 37.8 µM), for inactives: at the top dose activity change, negative = inhibition, most hits filed as inhibitors; Marburg virus pseudotyped entry inhibition, cell reporter; control for the full effect not named in the record; about a third of the inactives were read at about 46 µM; active = well fitted inhibition curve with a large enough effect; inconclusive = small, poorly fitted or top-dose-only effect, or effect the other way; inactive = flat fitted curve, though single readings scatter; tested in HEK293 cells; about a fifth of its hits are not listed in these tables; also: % is scaled to controls: 0 for no effect and ±100 for the full control effect; luciferase read-out
# Lassa entry inh – inhibitors of Lassa virus binding or cell entry; Potency, µM (titrated, usually from 37.9 µM), for the others: at the top dose activity change, negative = inhibition, usual class: inhibitors; Lassa virus pseudotype entry inhibition, cell reporter; control for the full effect not named in the record; 1.2% of 300,000 active; active means well fitted inhibition curve with a large enough effect; inconclusive means small, poorly fitted or top-dose-only effect, or effect the other way; inactive means flat fitted curve, though single readings scatter; tested in HEK293 cells; also: % is scaled to controls: 0 for no effect and ±100 for the full control effect; nearly all actives have a fitted effect of over 50% in size; luciferase read-out
# RE007 growth inh – less growth of the S. pombe RE007 Vpr strain. AID 651644. 0.21% of 360,000 active. Potency, µM (titrated, usually from 92.2 µM), for the others: at the top dose activity change, negative = less growth. S. pombe RE007 Vpr strain, BacTiter-Glo ATP luminescence, 24 h; control for the full effect not named in the record; active = well fitted falling curve with a large enough effect; inconclusive = small, poorly fitted or top-dose-only effect; inactive = no such curve, though single readings can be large or run the other way;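 also: % is scaled to controls: 0 for no effect and ±100 for the full control effect; nearly all actives have a fitted effect of over 50% in size; the assay follows cell death caused by Vpr and the record does not say whether a fall means rescue or toxicity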
#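 Fission yeast strain RE007, carrying one chromosomally integrated HIV-1 vpr copy, was seeded at OD 0.01 in PMG+AL medium with 23 nL pinned compound. After 24 h at 30 °C and 99% humidity, viability was read by BacTiter-Glo luminescence.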
# Cruzain inh noDet – cruzain (T. cruzi) inhibition without detergent; AID 1476; purified cruzain, Z-FR-AMC fluorescence, no detergent; P25779; Potency, µM, without a hit: max response, negative = inhibition, most hits filed as inhibitors; 2.3% of 200,000 active;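 also: plate controls were enzyme without inhibitor for no effect and buffer without enzyme for full effect; nearly all actives have a fitted effect of over 40% in size; top concentration of the series not given in the record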
# Target sequence (P25779 123-467 limits assumed): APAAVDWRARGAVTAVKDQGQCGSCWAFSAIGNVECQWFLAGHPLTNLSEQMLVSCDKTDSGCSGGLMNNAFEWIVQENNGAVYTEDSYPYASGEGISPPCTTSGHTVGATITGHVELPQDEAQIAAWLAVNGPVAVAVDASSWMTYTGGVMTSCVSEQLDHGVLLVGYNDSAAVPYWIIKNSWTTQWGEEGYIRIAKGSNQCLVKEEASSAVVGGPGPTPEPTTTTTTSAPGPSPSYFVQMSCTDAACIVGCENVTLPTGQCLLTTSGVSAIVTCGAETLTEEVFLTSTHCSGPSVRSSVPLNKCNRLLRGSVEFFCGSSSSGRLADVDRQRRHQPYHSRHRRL
#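 Detergent-free condition (0.00005% Triton X-100) in acetate buffer pH 5.5 with DTT. 1.5 nM enzyme and compound were pre-mixed 15 min, then 2 uM Z-FR-AMC substrate added; reaction progress from fluorescence change between first and third reads (60 s).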
# SARS PLpro yeast – blocks SARS-CoV papain-like protease in a yeast assay; AID 485353; 0.19% of 330,000 active; S. cerevisiae expressing SARS-CoV PLpro, growth rescue; control for the full effect not named in the record; Potency, µM (doses to about 32.9 µM), for the others: at the highest dose activity, positive = growth rescue; active means well fitted rising curve with a large enough effect; inconclusive means small, poorly fitted or top-dose-only effect; inactive means no such curve, though single readings can be large or run the other way; also: 0% is about no effect; nearly all actives have a fitted effect of over 55% in size; growth read by luminescence after 48 h
# Cruzain Triton – inhibitors of Trypanosoma cruzi cruzain with detergent. purified cruzain, Z-FR-AMC fluorescence, 0.01% Triton. Potency, µM, for the others: max response, negative = inhibition, usual class: inhibitors. 0.43% of 200,000 active. AID 1478;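 also: plate controls were neutral wells for no effect and buffer without enzyme for full effect; nearly all actives have a fitted effect of over 40% in size; top concentration of the series not given in the record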
#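 Enzyme 1.5 nM, Z-FR-AMC 2 uM, NaOAc 100 mM pH 5.5, DTT 5 mM, Triton X-100 0.01%; 15 min RT compound preincubation; kinetic ex360/em450, 60 s delta.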
# NS1 function inh – inhibitors of influenza NS1 protein function; 0.4% of 270,000 active; S. cerevisiae slowed by influenza A NS1, growth recovery by OD600; Potency, µM (titrated, usually from 46.1 µM), without a hit: at the top dose activity, positive = more growth; active means well fitted rising curve with a large enough effect; inconclusive means small, poorly fitted or top-dose-only effect; inactive means no such curve, though single readings can be large or run the other way; also: nearly all actives have a fitted effect of over 50% in size
#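 S. cerevisiae expressing influenza A NS1, grown in glucose, washed, then diluted 1:100 into pH 6.0 -URA galactose medium with 23 nl compound. Growth recovery read as OD600; NS1-free strain serves as control.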
# 2A StopGo – FMDV 2A StopGo reporter, luciferase signal; human cells with a luciferase reporter of 2A StopGo recoding; control for the full effect not named in the record; Potency, µM (titrated, usually from 57.9 µM), without a hit: top-dose signal change, negative = less light; 1.2% of 410,000 active; active = well fitted falling curve with a large enough effect; inconclusive = small, poorly fitted or top-dose-only effect; inactive = no such curve, though single readings can be large or run the other way; tested in HEK293T cells; also: % is scaled to controls: 0 for no effect and ±100 for the full control effect; nearly all actives have a fitted effect of over 45% in size; luciferase light after 4 h
# * = called active by the depositor; ? = inconclusive; / = no result given; & = joins results of further samples; [ ] = another dose, or the depositor's remark. Unless noted, calls follow the shape of the dose curve; as a rule, active = well fitted curve in the direction sought with a large enough effect; inconclusive = small, poorly fitted or top-dose-only effect, or another doubt; inactive = no such curve, though single readings can be large; an effect the other way counts as inactive or inconclusive. Potency is read from the fitted curve at half-maximal effect.
SMILES,MARV entry inh,Lassa entry inh,RE007 growth inh,Cruzain inh noDet,SARS PLpro yeast,Cruzain Triton,NS1 function inh,2A StopGo
Cc1cc(C)cc(OCC(=O)NNC(=O)CCN2C(=O)c3ccccc3C2=O)c1,27.9%,4.0%,-18.6%,-3.9%,8.9%,-0.6%,-7.4%,-3.5%
CCC(=O)Nc1ccc(Nc2nc(C)c([N+](=O)[O-])c(Nc3ccc(NC(=O)CC)cc3)n2)cc1,?,?,-8.9%,20.4%,-2.1%,-2.3%,13.4%,?
N#CCCn1cc(C(=O)Nc2ccc(F)cc2)c(-c2ccccc2)n1,/,/,0.5%,/,-3.9%,/,10.1%,15.0%
O=C(O)c1ccc2c(c1Nc1ccccc1)C(=O)c1ccccc1C2=O,-0.1%[46.1 µM],-18.5%[46.1 µM],?,/,1.9%,/,8.2%,-24.1%
CN(C(=O)COc1ccc(S(=O)(=O)N2CCOCC2)cc1[N+](=O)[O-])C1CCS(=O)(=O)C1 (stereo not drawn),2.6%[46.1 µM],12.0%,-12.9%,/,-1.6%,/,0.5%,41.7%[activator]
O=C(C1CCC(=O)N(C2CCCC2)C1)N1CCN(c2ccc(Cl)cc2)CC1 (stereo not drawn),/,/,-7.4%,/,11.2%,/,9.6%,-28.1%
OCCC1CN(Cc2ccon2)CCN1Cc1ccc(F)c(F)c1 (stereo not drawn),/,/,-13.8%,/,0.5%,/,4.6%,-2.1%
CN1C(=O)c2ccc(NC(=S)NC(=O)C(C)(C)C)cc2C1=O,7.0%,0.0%,-4.2%,3.8%,19.9%,-4.9%,5.3%,-11.1%
Cc1ccc(CN(Cc2ccco2)S(=O)(=O)c2ccc(S(=O)(=O)NCC3CCCO3)cc2)cc1 (stereo not drawn),23.1%,?,3.3%,20.2%,23.4%,-3.7%,14.0%,13.3%
Cc1ccc(Nc2nnc(SCC(=O)c3cc4ccccc4o3)s2)cc1C,?,0.3%,-2.3%,15.8µM*,-1.3%,-8.8%,27.5%,21.9%
CC(C)O/C(=N\S(=O)(=O)c1ccc(Cl)cc1)c1ccccc1,25.4%,21.7%,-2.0%,-3.1%,2.2%,-1.5%,2.5%,-8.6%
CCOC(=O)C(c1ccccc1)C(Nc1ccccc1)c1ccccn1 (stereo not drawn),/,/,13.8%,/,0.1%,/,2.0%,-16.1%
COc1cc(C2c3c(n[nH]c3C)C(=O)N2c2ccc(Br)cc2)ccc1O (stereo not drawn),-36.3%[46.1 µM],1.2%,-8.4%,-8.8%,2.1%,0.6%,10.4%,-4.1%
Cc1ccccc1CNS(=O)(=O)c1c(C)[nH]c(C)c1C(=O)N1CCCCC1,11.1%[46.1 µM],19.3%[46.1 µM],5.7%,/,-6.4%,/,11.4%,60.7%[activator]
Cc1cc(C)n(-c2ccc(NC(=O)C3CCN(Cc4cc(C)c(C)o4)CC3)cc2)n1,-1.5%,-0.5%,19.5%,/,24.3%,/,3.1%,-3.9%
Cc1ccc(N(C(=O)CCC(=O)Nc2cc(C)on2)C(C(=O)NC2CCCC2)c2ccccc2)cc1 (stereo not drawn),/,/,-9.1%,/,0.5%,/,-5.6%,-14.2%
O=C(CSc1nncn1-c1ccccc1)Nc1ccccc1,3.7%,25.4%,3.4%,/,2.4%,/,-1.8%,6.3%
CC(=O)/C(C(=N)N1CCN(Cc2ccccc2)CC1)=C(\C)O,12.4%,2.7%,-17.6%,2.7%,4.2%,-1.5%,-24.3%,-10.5%
CC1CCN(C(=O)Cn2cc3c(n2)CCCC3)CC1,/,/,3.6%,-6.7%,-8.2%,0.7%,1.7%,7.5%
CCN(CCCNC(=O)CN1C(=O)COc2ccccc21)c1cccc(C)c1,6.6%,-14.7%,-13.1%,11.0%,0.1%,3.6%,-4.9%,-8.1%
CSCCC(NS(=O)(=O)c1ccccc1F)C(=O)NNC(=O)c1csc(N2CCOCC2)n1 (stereo not drawn),9.0%[46.1 µM],1.0%,-3.5%,/,-0.7%,/,/,-3.8%
CC(C)OCC(O)Cn1c(N2CCCC2)nc2c1c(=O)n(C)c(=O)n2C (stereo not drawn),-0.7%,22.3%,-6.6%,/,4.3%,/,6.9%,-2.9%
CCn1c(SCC(=O)N2CCCC2)nnc1-c1ccc(N)cc1,?,-0.5%,?,-15.3%,7.3%,6.7%,20.6%,-9.5%
Cc1ccccc1C(=O)Nc1ccc2c(c1)CCCN2C(=O)c1cccs1,/,0.891µM*,0.6%,-12.9%,-5.6%,-3.9%,-24.8%,-29.5%&-2.6%
CCOC(=O)c1c(C)sc2c1N(C(=O)CN(CC)CC)c1cc(Cl)ccc1S2,?,?,-1.4%,8.3%,7.2%,6.0%,-6.9%,-20.2%
CCc1ccc(Nc2nc(-c3cc4cccc(OC)c4oc3=O)c(CC)s2)cc1,/,-21.6%[46.1 µM],/,?,/,-2.0%,/,-2.7%
CCCCC(=O)Nc1c(C)cc(C)cc1Cl,-27.1%[46.1 µM],14.5%,44.6%,0.7%,-10.6%,-7.8%,-5.6%,27.1%
CC1CCCCN1C(=O)C1CCCCN1S(=O)(=O)c1cccc([N+](=O)[O-])c1 (stereo not drawn),/,/,-4.8%,/,-1.4%,/,-3.9%,2.7%
c1ccc2c(c1)CNc1ccccc1C2,-12.1%,6.7%,-2.5%,-5.5%,-1.5%,10.6%,-2.9%,2.5%
NC(=O)c1sc(=S)n2c1[nH]c(=O)c1sccc12,9.7%[46.1 µM],-1.3%[46.1 µM],-24.9%,/,-0.5%,/,/,-12.4%
COc1ccccc1OCC(O)Cn1c(Br)nc2c1c(=O)[nH]c(=O)n2C (stereo not drawn),-19.4%,-4.0%,12.1%,-0.9%,3.2%,0.5%,2.6%,?
Cn1c(Cc2ccccc2)[n+](C)c2ccccc21,-21.0%[46.1 µM],/,-20.7%,/,-1.6%,/,/,-16.0%
Cc1ccccc1CN1CCCC(C(=O)Nc2ccc(-c3ccn[nH]3)cc2)C1 (stereo not drawn),?,-27.5%,-6.4%,/,-9.9%,/,-0.3%,-19.1%
Cc1ccc(C)c2[nH]c(=O)c(CCNC(=O)c3cc4ccccc4o3)cc12,/,/,1.4%,24.4%,-2.6%,0.7%,-92.4%,?
COc1ccc(Nc2nc(N)nc(N)c2S(=O)(=O)c2ccccc2)cc1,?,-8.4%[46.1 µM],/,-11.9%,/,-7.7%,/,-16.8%
COC(=O)c1sccc1NC(=O)COc1cccc(C)c1,4.5%[46.1 µM],-2.3%[46.1 µM],4.6%,/,-1.1%,/,-38.3%,-4.8%

# Looked up above.
# 2A StopGo with Cc1ccccc1CN1CCCC(C(=O)Nc2ccc(-c3ccn[nH]3)cc2)C1 (stereo not drawn) is entered as -19.1%
# SARS PLpro yeast with Cn1c(Cc2ccccc2)[n+](C)c2ccccc21 is entered as -1.6%
# Cruzain Triton with CCc1ccc(Nc2nc(-c3cc4cccc(OC)c4oc3=O)c(CC)s2)cc1 is entered as -2.0%

# Reprinted from the results shown for reference:
SMILES,MARV entry inh,Lassa entry inh,RE007 growth inh,Cruzain inh noDet,SARS PLpro yeast,Cruzain Triton,NS1 function inh,2A StopGo
CCOC(=O)c1c(C)sc2c1N(C(=O)CN(CC)CC)c1cc(Cl)ccc1S2,?,?,-1.4%,8.3%,7.2%,6.0%,-6.9%,-20.2%
CCc1ccc(Nc2nc(-c3cc4cccc(OC)c4oc3=O)c(CC)s2)cc1,/,-21.6%[46.1 µM],/,?,/,-2.0%,/,-2.7%
CCCCC(=O)Nc1c(C)cc(C)cc1Cl,-27.1%[46.1 µM],14.5%,44.6%,0.7%,-10.6%,-7.8%,-5.6%,27.1%

# Next structures follow.
SMILES,MARV entry inh,Lassa entry inh,RE007 growth inh,Cruzain inh noDet,SARS PLpro yeast,Cruzain Triton,NS1 function inh,2A StopGo
O=C(NCC1CCCO1)C(c1ccc(F)cc1)N(C(=O)Cn1nnc(-c2ccc(F)cc2)n1)c1cccc(O)c1 (stereo not drawn),10µM*,-1.0%,3.4%,/,0.7%,/,-5.8%,-26.6%
CC(/C=N/NC(=O)Cn1nccc1C)=C\c1ccc(C(C)C)cc1,5.1%,3.3%,15.1%,?,-2.3%,-13.5%,-23.3%,-24.9%
CCOc1ccccc1N1CCN(C(=O)c2c(-c3ccccc3Cl)noc2C)CC1,13.4%,1.2%,0.8%,?,7.7%,-0.4%,-9.3%,0.0%
COc1ccc2c(c1)S/C(=C\C(=O)c1ccncc1)N2C,-18.3%,7.7%,?,0.1%,-23.7%,-6.5%,-137.2%,37.5%[activator]
O=C1c2ccccc2C(=O)N1CCCc1nc(-c2ccncc2)no1,2.4%,1.2%,3.0%[3.69 µM],?,16.7%,-0.2%,1.2%,-27.9%
COc1ccc(-n2c(-c3ccco3)n[nH]c2=S)cc1,21.3%,13.5%,-12.2%,-7.3%,2.5%,0.4%,8.4%,18.1%
CCOc1ccccc1NC(=O)/C=C/C(N)=O,-19.0%,-4.3%,-7.0%,-3.7%,-32.5%,3.8%,-40.0%,/
Cc1ccc(N(CC(=O)NC2CCCCC2)C(=O)CNC(=O)c2ccco2)cc1F,9.4%[46.1 µM],0.4%,4.3%,/,-0.3%,/,-0.2%,-18.0%
CCn1c(CN2CCC(C)CC2)nc2cc(NC(=O)COc3ccc(Cl)c(C)c3)ccc21,?,/,/,-9.4%,/,-4.0%,/,17.8µM*

# Record cards, from the list above. Screens in order: MARV entry inh, Lassa entry inh, RE007 growth inh, Cruzain inh noDet, SARS PLpro yeast, Cruzain Triton, NS1 function inh, 2A StopGo
# CCn1c(CN2CCC(C)CC2)nc2cc(NC(=O)COc3ccc(Cl)c(C)c3)ccc21 in the list: ?, /, /, -9.4%, /, -4.0%, /, 17.8µM*
# COc1ccc(-n2c(-c3ccco3)n[nH]c2=S)cc1 in the list: 21.3%, 13.5%, -12.2%, -7.3%, 2.5%, 0.4%, 8.4%, 18.1%
